Screens deposited in PubChem by National Center for Advancing Translational Sciences (NCATS).
RE007 growth inh – less growth of the S. pombe RE007 Vpr strain; 360,000 compounds, 0.21% hits; Potency, µM (top dose mostly 92.2 µM), for inactives: at the highest dose activity change, negative = less growth; AID 651644; S. pombe RE007 Vpr strain, BacTiter-Glo ATP luminescence, 24 h; control for the full effect not named in the record; active = well fitted falling curve with a large enough effect; inconclusive = small, poorly fitted or top-dose-only effect; inactive = no such curve, though single readings can be large or run the other way;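 note: % is set by controls: 0 for no effect and ±100 for the full control effect; nearly all actives have a fitted effect of over 50% in size; the assay follows cell death caused by Vpr and the record does not say whether a fall means rescue or toxicity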
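Fission yeast RE007 carrying one integrated HIV-1 vpr copy, seeded at OD 0.01 in PMG+AL medium with 23 nL pinned compound. Grown 24 h at 30 degrees; viability read by BacTiter-Glo luminescence after 5 min.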
2A StopGo – FMDV 2A StopGo reporter, luciferase signal. AID 1159524. 410,000 compounds, 1.2% hits. Potency, µM (highest dose often 57.9 µM), for the others: top-dose signal change, negative = less light. human cells with a luciferase reporter of 2A StopGo recoding; control for the full effect not named in the record; active = well fitted falling curve with a large enough effect; inconclusive = small, poorly fitted or top-dose-only effect; inactive = no such curve, though single readings can be large or run the other way; tested in HEK293T cells; note: % is set by controls: 0 for no effect and ±100 for the full control effect; nearly all actives have a fitted effect of over 45% in size; luciferase light after 4 h
SARS PLP yeast – SARS-CoV PLP inhibition in yeast | S. cerevisiae expressing SARS-CoV PLpro, growth rescue; control for the full effect not named in the record | Potency, µM (top dose mostly 32.9 µM), for inactives: top-dose activity, positive = growth rescue | 330,000 compounds, 0.19% hits | AID 485353; active means well fitted rising curve with a large enough effect; inconclusive means small, poorly fitted or top-dose-only effect; inactive means no such curve, though single readings can be large or run the other way; note: 0% is about no effect; nearly all actives have a fitted effect of over 55% in size; growth read by luminescence after 48 h
* = called active by the depositor; ? = inconclusive; [ ] = another dose, or the depositor's remark. Potency is the fitted concentration of half-maximal effect.

SMILES	RE007 growth inh	2A StopGo	SARS PLP yeast
O=C(NCc1ccncc1)c1cccc(S(=O)(=O)N2CCc3ccccc32)c1	2%	?	-3%
C[C@H](CO)N1C[C@H](C)[C@@H](CN(C)Cc2ccc(Cl)c(Cl)c2)Oc2c(NC(=O)CCC(F)(F)F)cccc2C1=O	6%	17%	0%
COc1ccc(-c2sc3ccc(N4CCOCC4)cc3c2C#CC(C)(C)O)cc1	-1%	-18%	-2%
CC(=O)c1cc(Cl)ccc1OCC(=O)Nc1cccc(S(=O)(=O)N2CCCC2)c1	10%	-8%	7%
CCOC(=O)[C@H]1[C@H]2COc3ccc(OC)cc3[C@@H]2N2C(=O)c3cc(OC)c(OC)cc3NC(=O)[C@@]12C	11%	?	1%
CSCCC(NS(=O)(=O)c1ccccc1)C(=O)OC(C)C(=O)Nc1ccc(Cl)cn1 (stereo not given)	-12%	3%	-2%
COc1cc(SC)ccc1C(=O)Nc1cccc(S(=O)(=O)NC2=NCCC2)c1	-3%	14%	-5%
CC(Sc1ccccc1F)C(=O)Nc1cccc(S(=O)(=O)N2CCOCC2)c1 (stereo not given)	5%	-6%	1%
CC1(c2cccc(Br)c2)NC(=O)N(CC(=O)NCC2CCCO2)C1=O (stereo not given)	-4%	-18%	-12%
O=C(CSc1nncs1)NC(=O)NC1CCCC1	3%	7%	-5%
Cc1cc(C)c(C)c(S(=O)(=O)N2CCN(C(=O)c3ccncc3)CC2)c1C	-10%	-3%	2%
O=C(/C=C(O)/C=C/c1ccc(O)cc1)/C=C/c1ccc(O)cc1	-9%	9%	-2%
Cc1ccc(NC(=O)c2nc[nH]c2C(=O)NCCCNC(=O)c2[nH]cnc2C(=O)Nc2ccc(C)cc2)cc1	-3%	?	4%
CCOC(=O)[C@H]1[C@H]2COc3ccc(OC)cc3[C@@H]2N2C(=O)c3cc(OC)ccc3NC(=O)[C@@]12C	16%	-19%	3%
COc1cc(/C=C/C(=O)OC[C@H]2O[C@H](OC3(CO)OC(CO)C(O)C3O)[C@H](O)[C@@H](O)[C@@H]2O)ccc1O (stereo not given in full)	0%	-4%	1%
COc1ccc(OC)c2sc(NNC(=O)COc3ccccc3)nc12	21%	-16%	0%
CCCCN(C(=O)COC(=O)c1nc2nccc(C)n2n1)C1CCS(=O)(=O)C1 (stereo not given)	-10%	-6%	-3%
NC(=O)c1ccccc1OCC(=O)Nc1ccc2c(c1)CCC2	8%	35%[activator]	4%
CN(CC(=O)Nc1ccc(F)c(F)c1F)C(=O)C1CSC2(C)CCC(=O)N12 (stereo not given)	-14%	-6%	3%
COc1cc(NC(=O)CCN2C(=O)NC3(CCCC3)C2=O)c(OC)cc1Cl	2%	-16%	-3%
CSc1ccc(C2=CC(=O)C[C@H](c3ccc(Cl)cc3)C2)cc1	7%	0%	-1%
O=C(COC(=O)c1cccs1)Nc1cccc(S(=O)(=O)NC2=NCCCCC2)c1	-4%	0%	0%
O=C(COC(=O)COc1ccccc1F)Nc1ccc2c(c1)OCO2	7%	-10%	-13%
CC1(C)O[C@@H]2[C@H](O1)[C@@H](CO)O[C@H]2n1c(N2CCCCC2)nc2c(N)ncnc21	3%	-1%	-5%
C=CC[C@@H](CC(=O)N[C@@H](CO)Cc1ccccc1)C(=O)N[C@@H](COC(=O)[C@@H](CC=C)Cc1ccc(F)cc1)Cc1ccccc1	15%	-22%	10%

Looked up by compound from above, four records:
SMILES	RE007 growth inh	2A StopGo	SARS PLP yeast
O=C(COC(=O)COc1ccccc1F)Nc1ccc2c(c1)OCO2	7%	-10%	-13%
O=C(NCc1ccncc1)c1cccc(S(=O)(=O)N2CCc3ccccc32)c1	2%	?	-3%
CCOC(=O)[C@H]1[C@H]2COc3ccc(OC)cc3[C@@H]2N2C(=O)c3cc(OC)ccc3NC(=O)[C@@]12C	16%	-19%	3%
COc1cc(/C=C/C(=O)OC[C@H]2O[C@H](OC3(CO)OC(CO)C(O)C3O)[C@H](O)[C@@H](O)[C@@H]2O)ccc1O (stereo not given in full)	0%	-4%	1%

New compounds follow
SMILES	RE007 growth inh	2A StopGo	SARS PLP yeast
O=C1C=C(c2cc3ccccc3s2)C[C@@H](c2ccc(Cl)cc2)C1	-9%	-12%	-3%
CCOC(=O)[C@H]1[C@H]2COc3ccc(Br)cc3[C@@H]2N2C(=O)N(c3ccc(F)cc3)C(=O)[C@@]12C	-4%	?	-1%
O=C1NC(=Nc2ccccc2)S/C1=C/c1cccs1	2%	67%[activator]	0%
COc1ccc(/C=C/C(=O)N2CCN(S(=O)(=O)c3ccccc3Br)CC2)cc1OC	0%	-33%	-9%
COC(=O)C1=C(c2c(C)noc2C)C[C@@H]2CC[C@H]1N2C(=O)N1CCCCC1	-1%	-8%	-19%
O=C(O)c1cccc2c1C(=O)c1ccc(Cl)cc1S2(=O)=O	-1%	-17%	-6%
COC(=O)C1CCN(C(=O)c2cc(-c3ccco3)nc3ccccc23)CC1	-24%	-5%	2%
C[C@@H](CN1CCC[C@H]1CN1C(N)=NC[C@@H]1Cc1ccccc1)N1C[C@@H](Cc2ccccc2)N(CCCC2CCCC2)C1=N	53%	-13%	-2%
CCOC(=O)CCCCCC(=O)Nc1ccc2c(c1)C(=O)N([C@H](C)CO)C[C@H](C)[C@@H](CN(C)C(=O)Nc1ccc(OC)cc1)O2	3%	-5%	-2%
COC(=O)c1c(C)[nH]c(C(=O)COc2ccc3ccc(=O)oc3c2)c1C	19%	-43%	0%
CCN(CC(=O)Nc1ccc(NC(C)=O)cc1)C(=O)c1cc2c(s1)CCCC2	-6%	-8%	14%[6.58 µM]
O=C(CC1C[C@H](C(=O)N2CCOCC2)[C@@]2(CCC3CCCC3)c3[nH]c4ccccc4c3CCN2C1=O)NCCc1ccccn1 (stereo not given in full)	4%	15%	0%
CN(C)C(CNC(=O)CSc1nc2sc3c(c2c(=O)n1C)CCCC3)c1ccccc1 (stereo not given)	-4%	?	3%
O=C(Cc1ccc(S(=O)(=O)N2CCCC2)s1)Nc1cccc([N+](=O)[O-])c1	-6%	-10%	3%
CCN(CC)C(=O)[C@H]1C[C@H](CC(=O)NCCCN(C)C)C(=O)N2CCc3c([nH]c4cc(CCC(=O)N(C)C)ccc34)[C@]12C	-20%	6%	3%
O=c1cc(O)c(-c2cccc(C(F)(F)F)c2)c(Cl)[nH]1	-8%	-17%	4%
CNS(=O)(=O)c1cc2c3c(cccc3c1)C(=O)NC2=O	9%	-6%	0%
COc1ccc(NC(C)=O)cc1S(=O)(=O)N1CC=C(c2ccccc2)CC1	-10%	-16%	1%
N#CCCCC#Cc1ccc2c(c1)COc1c3ccccc3nn1-2	?	-13%	3%
CC1CCN(c2nc3ccccc3n2CC(=O)c2ccccc2)CC1	14%	-20%	-8%
CN(Cc1ccc(Cl)c(Cl)c1)C(=O)c1cccc(S(=O)(=O)N2CCN(Cc3ccccc3)CC2)c1	-8%	-21%	-2%
COC(=O)C1=C(c2ccc(OC)c(OC)c2)C[C@@H]2CC[C@H]1N2C(=O)N1CCCCC1	14%	-25%	-1%
COc1ccc(CNC(=O)c2ccc(N3CCC4(CC3)CC(c3ccc(Cl)cc3)=NO4)c(NC(=O)Cc3ccc(F)cc3)c2)cc1	6%	0%	-5%
O=S(=O)(NCCc1ccc(F)cc1)c1ccc(F)cc1Br	10%	64%[activator]	-17%
Cc1cc(Cl)ccc1NC(=O)COC(=O)CCNS(=O)(=O)c1ccccc1	0%	-1%	5%

In a second layout: three of the compounds above
SMILES: CCN(CC)C(=O)[C@H]1C[C@H](CC(=O)NCCCN(C)C)C(=O)N2CCc3c([nH]c4cc(CCC(=O)N(C)C)ccc34)[C@]12C
  RE007 growth inh = -20%
  2A StopGo = 6%
  SARS PLP yeast = 3%

SMILES: O=C(CC1C[C@H](C(=O)N2CCOCC2)[C@@]2(CCC3CCCC3)c3[nH]c4ccccc4c3CCN2C1=O)NCCc1ccccn1 (stereo not given in full)
  RE007 growth inh = 4%
  2A StopGo = 15%
  SARS PLP yeast = 0%

SMILES: CNS(=O)(=O)c1cc2c3c(cccc3c1)C(=O)NC2=O
  RE007 growth inh = 9%
  2A StopGo = -6%
  SARS PLP yeast = 0%

Part of the list above, limited to 2A StopGo and SARS PLP yeast.
smiles	2A StopGo	SARS PLP yeast
COC(=O)C1=C(c2ccc(OC)c(OC)c2)C[C@@H]2CC[C@H]1N2C(=O)N1CCCCC1	-25%	-1%
CCOC(=O)CCCCCC(=O)Nc1ccc2c(c1)C(=O)N([C@H](C)CO)C[C@H](C)[C@@H](CN(C)C(=O)Nc1ccc(OC)cc1)O2	-5%	-2%
COc1ccc(NC(C)=O)cc1S(=O)(=O)N1CC=C(c2ccccc2)CC1	-16%	1%

Remaining list, next part
SMILES	RE007 growth inh	2A StopGo	SARS PLP yeast
CC(C)CCC1(C)NC(=O)N(CC(=O)Nc2ccc3c(c2)OCCO3)C1=O (stereo not given)	-6%	-12%	7%
O=C(Cn1nc(C(=O)O)c2ccccc2c1=O)Nc1cccc(S(=O)(=O)N2CCOCC2)c1	-5%	-21%	-4%
COc1ccc(NC(=S)NC(=O)c2ccccc2Cl)cc1	-7%	55%[activator]	0%
O=C(Nc1cccc(Cl)c1)NC1CC2CCC(C1)N2Cc1ccco1 (stereo not given)	16%	-6%	-2%
CC(C)(C)OC(=O)N1CCC(NC(=O)c2[nH]cnc2C(=O)Nc2ccon2)CC1	-5%	0%	-2%
Cc1ccc(S(=O)(=O)N(C)CC(=O)NNC(=O)Cc2ccccc2F)cc1	10%	-2%	4%
Cc1ccccc1CN(C)C(C)C(=O)Nc1ccccc1F (stereo not given)	-21%	-37%	-4%
O=C1CCC/C=C\C[C@@H](CC(=O)N(CCO)Cc2ccccc2)C(=O)NCCO1	-1%	-7%	3%
CN(CC(=O)NC(=O)NC1CCCCC1)CC(=O)Nc1ccc(Cl)cc1	10%	-20%	-8%
NC(=O)CCSC(=S)N1CCOCC1	14%	1%	1%
CC1(C)CC2CC(C)(CN2C(=O)COC(=O)c2ccc(NC(=O)CC#N)cc2)C1 (stereo not given)	6%	6%	-1%
COc1ccc2sc(-c3ccccc3OC)c(C#Cc3cncn3C)c2c1	-13%	-24%	-16%
CC[C@@]1(C(=O)OC)N[C@H](CN(C)C(=O)Nc2ccc(F)cc2)[C@@H]2C(=O)N(Cc3ccccc3)C(=O)[C@@H]21	-23%	-16%	1%
O=C1C=C(c2ccc(-c3ccccc3)c(F)c2)C[C@@H](c2ccc(F)cc2)C1	0%	-12%	1%
CCC(=O)N1CCC(NC(=O)Nc2ccc(OC(F)(F)F)cc2)CC1	10%	-8%	6%
O=C1CCC(C(=O)OCC(=O)Nc2ccc(Cl)cc2C(F)(F)F)=NN1	-5%	-24%	1%
COc1ccc(N=c2oc3cc(O)ccc3cc2C(=O)Nc2ccccn2)cc1OC	2%	-4%	0%
COc1ccccc1CNS(=O)(=O)c1ccc(N2CCCC2)cc1Br	1%	5%	-13%
COC(=O)c1ccc(NC(=O)CN2C(=O)NC3(CCC(C)CC3)C2=O)cc1 (stereo not given)	8%	-15%	0%
COc1cc(NC(=O)COC(=O)Cc2ccsc2)cc(OC)c1	-6%	-2%	2%
COCCCNC(=O)c1ccc(NC(C)=O)cc1	-1%	5%	2%
C[C@@H]1COC(=O)[C@H](CC(=O)OC(C)(C)C)C/C=C\C[C@@H](CC(=O)NCCO)C(=O)N1	6%	9%	-1%

Only part of the results is shown (hit frequency here may not be typical).
